Shh pathway inh = blocks Sonic Hedgehog signaling | Shh-LIGHT2 Gli-luciferase reporter, 30 h | inhibition, % (concentration not given with the values) | actives 2.1% (n = 22,000);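 active = replicate mean of 65% or more; inconclusive = mean lower but half the replicates past it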;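 note: pathway switched on by Shh-conditioned medium diluted 1 in 25 in low serum; 100 nL library stock added to about 40 µL; 0% = median of neutral wells and 100% = positive control level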
YB-1 expression = YB-1 expression inhibition; U2OS, qRT-PCR YB-1 vs CDIP delta delta Cp, 16 h; active compounds read high; zero = DMSO, each unit about twofold; delta delta Cp (YB-1 minus CDIP) (test concentration not listed); actives 0.37% (n = 30,000); AID 434959;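 active = delta delta Cp rounded down to an integer at or above 3, about 3 SD of DMSO wells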;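 note: higher means less YB-1 transcript or more CDIP transcript relative to DMSO; stock transfer was 100 nL into about 100 µL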
MITF inhib = MITF inhibition. TRPM1 promoter luciferase, luminescence, 24 h. inhibition, % (no concentration beside the values). actives 0.28% (n = 37,000);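 active = most replicates at 85% or more, or half of them and the mean; inconclusive = half reach 85% but not the mean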;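 note: human melanocyte line stably carrying TRPM1 promoter luciferase reporter; 0% = vehicle wells and 100% = a positive control; the first replicate is given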
PD-1 reverse act = activators reversing PD-1 mediated T-cell inhibition | activation, % (test concentration not listed) | 29,000 tested, under 10 active | primary human CD4 T cells, PD-L1 beads, CellTiter-Glo 96 h;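 active = replicate mean of 50% or more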;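 note: 0% = median vehicle wells and 100% = positive control; 100 nL library stock added to about 50 µL; numbers are from one replicate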
* marks the source's active call; other numbers are inactive results; ? = inconclusive; . = no result given.

SMILES	Shh pathway inh	YB-1 expression	MITF inhib	PD-1 reverse act
C[C@H]1CN([C@@H](C)CO)C(=O)Cc2cc(NS(=O)(=O)c3ccc(Cl)cc3)ccc2O[C@@H]1CN(C)Cc1ccc2c(c1)OCO2	?	0.00809	13.0	.
C[C@H](CO)N1C[C@H](C)[C@@H](CN(C)S(=O)(=O)c2ccc(Cl)cc2)Oc2c(NC(=O)c3ccncc3)cccc2C1=O	-1.4	0.537	-14.5	0.1
CC(C)NC(=O)Nc1ccc2c(c1)C(=O)N([C@@H](C)CO)C[C@H](C)[C@H](CN(C)Cc1ccc(C(=O)O)cc1)O2	.	0.0702	0.6	-0.5
COc1ccc(-c2noc(CSc3nc(-c4ccccc4)cc(=O)[nH]3)n2)cc1OC	.	.	-0.6	0.2
COc1ccc(C(=O)NCc2oc(-c3ccccc3)cc2C(=O)O)cc1	.	.	-2.8	2.3
CC1(CO)CCCC2(C)C3=C(CC(=O)C12)C(=O)OC3 (stereo not given)	-7.9	0.993	0.9	0.9
C[C@@H]1CN([C@H](C)CO)C(=O)c2cc(NS(C)(=O)=O)ccc2O[C@@H]1CN(C)Cc1ccc(C(=O)Nc2ccccc2N)cc1	.	0.0408	-7.5	-0.5
COc1c2c(cc3oc(CO[C@@H]4O[C@H](CO)[C@@H](O)[C@H](O)[C@H]4O)cc(=O)c13)OC(C(C)(C)O)C2 (stereo not given in full)	-3.9	-0.185	-10.3	1.6
C[C@H](CO)N1C[C@H](C)[C@H](CN(C)S(=O)(=O)c2ccc(Cl)cc2)Oc2c(NC(=O)C3CCOCC3)cccc2C1=O	54.2	-0.143	-11.2	2.0
CCC(=O)NC(c1ccco1)c1cc(Cl)c2cccnc2c1O (stereo not given)	104.4*	-0.17	46.5	0.2
C[C@H]1CN([C@@H](C)CO)C(=O)c2cccc(NS(=O)(=O)c3ccc(F)cc3)c2O[C@@H]1CN(C)S(=O)(=O)c1cn(C)cn1	-19.8	-0.283	-9.5	.
C[C@@H]1CN([C@H](C)CO)C(=O)c2cc(NC(=O)CCN3CCOCC3)ccc2O[C@H]1CN(C)S(=O)(=O)c1cccs1	-23.7	0.185	-1.9	.
C[C@@H]1CN([C@@H](C)CO)C(=O)c2cccc(NS(C)(=O)=O)c2O[C@H]1CN(C)CC1CC1	-13.8	0.371	-4.0	2.5
C[C@H]1CN([C@@H](C)CO)C(=O)c2cccc(NC(=O)c3ccc(-c4nccs4)cc3)c2O[C@@H]1CN(C)Cc1ccc(C(=O)Nc2ccccc2N)cc1	.	-0.0232	39.7	-2.1
Cc1noc(C)c1NC(=O)N(C)C[C@H]1Oc2ccc(NC(=O)CCC(F)(F)F)cc2CC(=O)N([C@H](C)CO)C[C@H]1C	-38.9	0.0748	-5.4	1.3
C[C@@H]1CN([C@H](C)CO)C(=O)c2cc(NC(=O)Nc3ccc4c(c3)OCO4)ccc2O[C@H]1CN(C)S(=O)(=O)c1cn(C)cn1	-61.2	-0.19	-0.3	0.2
Cc1noc(C)c1NC(=O)Nc1cccc2c1O[C@H](CN(C)C(=O)Nc1ccc3c(c1)OCO3)[C@@H](C)CN([C@H](C)CO)C2=O	-40.8	0.398	-5.9	0.3
COc1cc(OC)cc(-c2nnc(SCC(=O)Nc3sc4c(c3C#N)CCC(C(C)(C)C)C4)o2)c1 (stereo not given)	.	.	-26.0	5.3
C[C@@H]1CN([C@@H](C)CO)C(=O)c2cc(NS(=O)(=O)c3ccc(F)cc3)ccc2O[C@@H]1CN(C)Cc1ccc(C(=O)Nc2ccccc2N)cc1	.	-0.317	29.1	-1.0
C[C@@H]1CN([C@H](C)CO)C(=O)Cc2cc(NC(=O)c3ccncc3)ccc2O[C@@H]1CN(C)S(=O)(=O)c1cccs1	?	0.571	-7.4	-0.3
Cc1ccc(S(=O)(=O)Nc2cccc3c2O[C@@H](CN(C)Cc2ccc(C(=O)Nc4ccccc4N)cc2)[C@H](C)CN([C@@H](C)CO)C3=O)cc1	.	0.0729	5.1	1.5
C[C@H]1CN([C@@H](C)CO)C(=O)Cc2cc(NC(=O)Cc3cn(C)c4ccccc34)ccc2O[C@@H]1CN(C)Cc1ccc(C(=O)O)cc1	-18.3	0.434	6.8	0.0
O=C(O)CCCC(=O)Nc1ccc(N2CCOCC2)c(C(=O)O)c1	.	.	-7.7	1.4
C=CC(C)(O)CC/C=C(\C)C(=O)OC1C2OC2(C)C2C(OC3OC(COC4OC(CO)C(O)C(O)C4O)C(O)C(O)C3O)OC=CC12O (stereo not given)	-9.3	0.118	.	.
COc1ccc(NC(=O)Nc2cccc3c2O[C@H](CN(C)S(=O)(=O)c2ccc(F)cc2)[C@@H](C)CN([C@H](C)CO)C3=O)cc1	22.2	0.39	-11.9	-2.1
C[C@H]1CN([C@@H](C)CO)C(=O)c2cc(NC(=O)c3ccncc3)ccc2O[C@H]1CN(C)Cc1ccc(Oc2ccccc2)cc1	18.8	0.553	-10.8	-1.0
C[C@]12CCC(=O)C=C1CC[C@@H]1[C@@H]2[C@@H](O)C[C@@]2(C)[C@H]1CC[C@]2(O)C(=O)CO	4.9	0.24	-36.0	.
C[C@H]1CN([C@@H](C)CO)C(=O)c2cc(NC(=O)C3CCCCC3)ccc2O[C@H]1CN(C)S(=O)(=O)c1ccc(Cl)cc1	.	0.669	3.2	0.2
C[C@H]1CN([C@@H](C)CO)C(=O)c2cc(N(C)C)ccc2O[C@@H]1CN(C)S(C)(=O)=O	18.5	-0.37	-4.1	0.0
C[C@@H]1CN([C@@H](C)CO)C(=O)c2cc(NS(=O)(=O)c3ccc(Cl)cc3)ccc2O[C@@H]1CN(C)C(=O)Nc1ccc2c(c1)OCO2	19.0	0.206	3.7	-0.9
COc1ccc2ccc(=O)oc2c1CC(O)C(C)(C)O (stereo not given)	-10.8	-0.24	6.4	-1.3
C[C@@H]1CN([C@@H](C)CO)C(=O)c2cccc(NC(=O)C3CC3)c2O[C@H]1CN(C)CC1CCCCC1	19.6	-0.0282	10.3	.
COc1ccc(NC(=O)c2cccc(Cn3cc(Br)cn3)c2)cn1	.	.	-9.9	2.7
CCOC(=O)c1c(C)oc2ccc(OCc3cccc([N+](=O)[O-])c3)cc12	.	.	-16.6	1.8
C[C@H]1CN([C@@H](C)CO)C(=O)c2cccc(NC(=O)Nc3ccccc3)c2O[C@@H]1CN(C)Cc1ccc(Oc2ccccc2)cc1	-10.2	-0.342	13.5	.
COc1cc(OC)c(C2=NOC(C(=O)Nc3cc(C)nn3-c3ccccc3)C2)cc1Cl (stereo not given)	.	.	-1.4	2.3
Cc1ccc(C(=O)N(Cc2nc(-c3ccc(Cl)cc3)no2)C(C)C)cc1[N+](=O)[O-]	.	.	18.0	0.6
CC(C)NC(=O)Nc1ccc2c(c1)CC(=O)N([C@H](C)CO)C[C@@H](C)[C@H](CN(C)C(=O)NC(C)C)O2	-2.5	0.212	-9.9	.
Cc1ccc(S(=O)(=O)N(C)C[C@@H]2Oc3ccc(NS(C)(=O)=O)cc3CC(=O)N([C@H](C)CO)C[C@@H]2C)cc1	2.0	0.0957	-13.4	1.0
Cc1ccc(S(=O)(=O)N(C)C[C@H]2Oc3c(NC(=O)CCCCCC(=O)Nc4ccccc4N)cccc3C(=O)N([C@H](C)CO)C[C@@H]2C)cc1	.	0.268	0.7	-1.4
CN1C(=O)C(O)(CC(=O)c2ccco2)c2cc(Cl)ccc21 (stereo not given)	.	.	23.7	0.8
O=C1c2ccccc2C(=O)N1CCc1nc2c3c4c(sc3ncn2n1)CCCCC4	.	.	-90.9	1.2
COc1ccc(S(=O)(=O)N(C)C[C@@H]2OCCCC[C@@H](C)Oc3ccc(NC(=O)NC4CCCCC4)cc3C(=O)N([C@H](C)CO)C[C@@H]2C)cc1	-20.1	-0.0028	8.1	0.1
C[C@H](CO)N1C[C@H](C)[C@H](CN(C)C(=O)Nc2ccc(F)cc2)Oc2ccc(NC(=O)Nc3ccc4c(c3)OCO4)cc2CC1=O	-13.0	-0.495	-14.0	0.5
C[C@H]1CN([C@@H](C)CO)C(=O)c2cccc(NC(=O)Nc3ccc(F)cc3)c2O[C@H]1CN(C)C(=O)Nc1ccc(F)cc1	-5.9	0.375	11.9	-1.1
Oc1cccc2ccc[n+](CC(O)Cn3c4ccccc4c4ccccc43)c12 (stereo not given)	21.1	0.332	0.1	-2.8
C[C@@H]1CN([C@H](C)CO)C(=O)c2cc(NC(=O)NC3CCCCC3)ccc2O[C@@H]1CN(C)Cc1ccc(C(F)(F)F)cc1	-16.9	-0.0535	18.0	0.9
Cc1cccc(C)c1N(CC(=O)Nc1ccc(Br)cc1)S(C)(=O)=O	.	.	-3.7	-1.3
CNC[C@H]1Oc2c(NS(=O)(=O)c3ccccc3)cccc2C(=O)N([C@H](C)CO)C[C@@H]1C	-3.7	-0.427	-10.5	2.7
C[C@@H]1CN([C@H](C)CO)C(=O)c2cccc(NS(=O)(=O)c3cn(C)cn3)c2O[C@H]1CN(C)S(=O)(=O)c1ccccc1	-3.5	0.477	-18.4	.
Cc1cc(C)c(NC(=O)CN(C)S(=O)(=O)c2ccc(Cl)cc2)c(C)c1	.	.	13.8	2.2
CC(C)NC(=O)N(C)C[C@@H]1Oc2ccc(NC(=O)Nc3ccc(C(F)(F)F)cc3)cc2CC(=O)N([C@H](C)CO)C[C@H]1C	-23.2	0.169	-4.5	1.3
CNC[C@H]1Oc2ccc(NC(=O)c3ccncc3)cc2CC(=O)N([C@H](C)CO)C[C@H]1C	-16.6	-0.0827	5.6	-0.1
C[C@@H]1CN([C@@H](C)CO)C(=O)c2cc(NC(=O)CCN3CCOCC3)ccc2O[C@@H]1CN(C)CC1CCCCC1	1.6	-0.271	-0.4	2.2
C[C@H](CO)N1C[C@H](C)[C@@H](CN(C)C(=O)Nc2cccc3ccccc23)Oc2ccc(NC(=O)Cc3ccccc3)cc2C1=O	-2.4	0.109	-4.2	0.6
COC(=O)C[C@H]1C(C)(C)C2(Cl)O[C@@]34CC2C(=O)[C@]1(C)C3CC[C@]1(C)C4=CC(=O)O[C@H]1c1ccoc1 (stereo not given in full)	8.0	0.296	7.9	.
Cc1cccc(OCC(=O)Nc2cccc(-c3nc4cc(C)cc(C)c4o3)c2)c1	.	.	-50.9	-0.3
CC(C)(C)NC(=O)c1ccc(-n2nc(C(F)(F)F)c3c2-c2ccoc2CC3)cc1	3.9	-0.636	5.9	0.6
C[C@@H]1CN([C@H](C)CO)C(=O)c2cc(NS(=O)(=O)c3cccs3)ccc2O[C@@H]1CN(C)CC1CCCCC1	23.7	-0.146	-5.3	.
CCc1cc2c(=O)n(CC(=O)Nc3ccccc3OC)cnc2s1	.	.	-4.5	0.1

Shown with bars between the fields: entries from further up
SMILES | Shh pathway inh | YB-1 expression | MITF inhib | PD-1 reverse act
COC(=O)C[C@H]1C(C)(C)C2(Cl)O[C@@]34CC2C(=O)[C@]1(C)C3CC[C@]1(C)C4=CC(=O)O[C@H]1c1ccoc1 (stereo not given in full) | 8.0 | 0.296 | 7.9 | .
Cc1cccc(OCC(=O)Nc2cccc(-c3nc4cc(C)cc(C)c4o3)c2)c1 | . | . | -50.9 | -0.3
CC(C)(C)NC(=O)c1ccc(-n2nc(C(F)(F)F)c3c2-c2ccoc2CC3)cc1 | 3.9 | -0.636 | 5.9 | 0.6
C[C@@H]1CN([C@H](C)CO)C(=O)c2cc(NS(=O)(=O)c3cccs3)ccc2O[C@@H]1CN(C)CC1CCCCC1 | 23.7 | -0.146 | -5.3 | .
C[C@@H]1CN([C@H](C)CO)C(=O)c2cccc(NS(=O)(=O)c3cn(C)cn3)c2O[C@H]1CN(C)S(=O)(=O)c1ccccc1 | -3.5 | 0.477 | -18.4 | .

Next results
SMILES	Shh pathway inh	YB-1 expression	MITF inhib	PD-1 reverse act
CNC[C@H]1Oc2c(NC(=O)Nc3ccccc3)cccc2C(=O)N([C@H](C)CO)C[C@H]1C	6.3	0.0657	0.8	-1.0
Cc1ccc(S(=O)(=O)N(C)C[C@@H]2Oc3ccc(NC(=O)NC4CCCCC4)cc3CC(=O)N([C@H](C)CO)C[C@@H]2C)cc1	-22.7	-0.0418	27.1	.
COc1ccc(CN(C)C[C@@H]2Oc3ccc(NS(=O)(=O)c4cn(C)cn4)cc3CC(=O)N([C@H](C)CO)C[C@H]2C)cc1	-18.8	0.0604	-3.7	0.9
Clc1ccc2ncnc(NCc3ccc4c(c3)OCO4)c2c1	62.4	0.35	45.4	-2.1
CC1(C)NC(=O)N(CCCOc2ccccc2CO)C1=O	.	.	-12.1	0.6
CCOc1ccc(NC(=O)C(C)Sc2nnnn2-c2ccccc2)cc1 (stereo not given)	.	.	-3.6	1.2
C[C@@H]1CN([C@@H](C)CO)C(=O)c2cc(NC(=O)Cc3cn(C)c4ccccc34)ccc2O[C@@H]1CN(C)C(=O)Nc1ccccc1	11.0	-0.157	15.7	-0.8
COc1cccc(NC(=O)CN(c2cc(Cl)c(Cl)cc2Cl)S(C)(=O)=O)c1	.	.	10.3	0.5
CS(=O)(=O)N(CC(=O)Nc1c(F)cccc1F)c1ccc(Br)cc1	.	.	-33.9	2.4
C[C@@H]1CN([C@H](C)CO)C(=O)c2cccc(NC(=O)C3CCOCC3)c2O[C@@H]1CN(C)S(=O)(=O)c1cccs1	-0.3	-0.113	3.2	1.4
C[C@@H]1CCCCO[C@@H](CN(C)C(=O)Nc2ccc3c(c2)OCO3)[C@@H](C)CN([C@H](C)CO)C(=O)c2cc(NS(C)(=O)=O)ccc2O1	-12.9	0.345	8.0	0.2

Only part of the results is shown. The share of hits here may be higher or lower than overall.
